Assay outcomes: PubChem, several laboratories
UUG fidelity – modulators of yeast start codon fidelity, primary screen, whole organism, S. cerevisiae, single point, plate reader. S. cerevisiae UUG-firefly luciferase reporter, luminescence/redox ratio. 350,000 compounds, 0.13% hits. activity score, % at 18.7 µM;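 active means replicate mean at a twofold rise or more, about +100% in these data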;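 further: firefly luciferase made from a UUG start codon reports start codon fidelity; reporter light over untreated wells divided by growth signal over untreated wells; some hits fall short of that in this replicate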
CSC inhib – cancer stem cell viability inhibitors, primary screen, luminescence | inhibition, % at 7.5 µM | AID 2717, 2010 | cancer stem cell-like cells viability | 300,000 compounds, 1.1% hits;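 active means mean at 75% or more and at least half the replicates too; inconclusive means mean and replicates disagree; tested in HMLE shEcad cells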;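 further: 0% = median of negative and 100% = median of positive control wells; the first replicate is given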
MT1-MMP act inh – blockers of MT1-MMP proenzyme processing, primary screen, HT1080 RFP-PRO-GFP cells, GFP/RFP fluorescence | GFP/RFP ratio fluorescence, overnight; percent of plate control window, DMSO zero | GFP/RFP ratio change, % at 20 µM | 360,000 compounds, 0.061% hits;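 active means GFP/RFP ratio change of at least 30% with cell ATP level not reduced by more than half and red fluorescence within 50% of control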; further: strong numbers were not always called active
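system = RFP-PRO-GFP reporter HT1080 cells | dosing = 20 µM single dose, 1% DMSO | timing = overnight cell settling, then overnight compound exposure, 37 °C, 5% CO2 | read-out basis = GFP/RFP fluorescence ratio | controls = DMSO and RFP-L50D-GFP cell wells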
PABP polyA inh – PABP poly(A) RNA binding inhibitors, primary screen, biochemical, fluorescence polarization, uHTS. inhibition, % at 35 µM. 290,000 compounds, 1% hits. AID 2014, 2009;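 active means 50% or more with normal probe brightness, or confirmed in later tests; inconclusive means above 50% with abnormal brightness, or retests that disagree; inactive means below 50% or failed in later tests; about a fifth of its hits are not listed in these tables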;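 further: calls also rest on retests at 20 µM and on dose response follow-up; controls were probe without protein and protein plus probe with vehicle; some compounds called inactive have numbers as strong as hits; many hits fall short of the cut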
Rce1 inhib – yeast Rce1p protease inhibitors, primary screen, biochemical, fluorescence, cell-free homogeneous. CAAX prenyl protease 2 (Saccharomyces cerevisiae (strain ATCC 204508 / S288c)), Q03530. yeast membranes, quenched prenylated peptide cleavage fluorescence. calls only. 290,000 compounds, 0.27% hits. AID 2563, 2010;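 active means fall in fluorescence gain of 50% or more versus controls, with final raw signal at or below 3038400; inconclusive means same 50% fall but final raw signal above 3038400; inactive means fall in fluorescence gain under 50%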;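 further: plate controls were neutral control wells for no effect and wells lacking membranes for full effect; tested at 10 µM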
Target sequence (Q03530 whole entry, looked up): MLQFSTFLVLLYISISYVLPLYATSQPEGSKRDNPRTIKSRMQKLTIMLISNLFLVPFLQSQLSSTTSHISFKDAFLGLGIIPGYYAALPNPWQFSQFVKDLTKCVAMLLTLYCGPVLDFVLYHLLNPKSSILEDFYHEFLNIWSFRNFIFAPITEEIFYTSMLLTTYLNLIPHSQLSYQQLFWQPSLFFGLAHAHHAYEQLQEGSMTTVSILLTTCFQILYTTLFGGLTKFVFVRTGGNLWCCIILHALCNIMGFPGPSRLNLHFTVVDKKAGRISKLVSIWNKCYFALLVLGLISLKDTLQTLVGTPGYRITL
Env fusion inh – inhibitors of HIV-1 Env-driven cell-cell fusion, primary screen, HeLa-JRFL effector, CEM21 target cells, luciferase; inhibition, % at 12.3 µM; 360,000 compounds, 1.1% hits;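 active means mean replicate inhibition score of at least 50 and every replicate individually at or above 50; inconclusive means only one of the two criteria met; inactive means mean below 50 and not all replicates reaching 50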;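 further: 0% = plate neutral controls and 100% = maraviroc near 300 nM; one replicate is shown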
eIF4H FP inh – human eIF4H binding inhibitors, primary screen, translation initiation inhibitor project, biochemical, uHTS, fluorescence polarization. Eukaryotic translation initiation factor 4H (Homo sapiens), Q15056. eIF4H fluorescence polarization binding assay. inhibition, % at 35 µM. 290,000 compounds, 0.94% hits. AID 2012, 2009;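 active means 50% or more with normal probe brightness, or confirmed in later tests; inconclusive means above 50% with abnormal brightness, or retests that disagree; inactive means below 50% or failed in later tests; about a fifth of its hits are not listed in these tables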;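 further: calls also rest on retests at 20 µM and on dose response follow-up; 0% = protein and probe with vehicle and 100% = probe without protein; strong numbers were not always called active; many hits fall short of the cut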
eIF4H FP inh retest – recorded beside eIF4H FP inh, whose call it bears; inhibition, %; compound at 20 µM; confirmation average;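 mean of two retest wells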
PABP polyA inh retest – also measured in PABP polyA inh; calls as there; inhibition, %; compound at 20 µM; confirmation repeats;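 mean of two retest wells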
MT1-MMP act inh RFP – second read-out of MT1-MMP act inh, no call of its own (marks repeat the call); RFP signal change, %; measured here: RFP expression control read;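 0 = vehicle wells; hits needed this value within 50% of zero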
The depositor's hits bear a star; i = inactive; ? = inconclusive; nt = no result given; & = joins results of further samples.

SMILES	UUG fidelity	CSC inhib	MT1-MMP act inh	MT1-MMP act inh RFP	PABP polyA inh	Rce1 inhib	Env fusion inh	eIF4H FP inh	others
O=C(COc1ccc(S(=O)(=O)N2CCCC2)cc1Cl)NCc1cccnc1	-13	1	1	0	0	i	3	-2
CCOC(=O)C(NS(=O)(=O)c1ccccc1)(C(F)(F)F)P(=O)(OCC(C)C)OCC(C)C (stereo unspecified)	-3	13	0	1	18	i	nt	-5
Cc1ccc(-n2c(O)c(C=NCc3ccccn3)c3ccccc3c2=O)cc1	-18	1	-1	-2	17	i	11	-7
Cc1cccn2c(CN(C)C3CCCc4ccccc43)c(C(=O)N3CCOCC3)nc12 (stereo unspecified)	-2	-7	-5	-3	0	i	18	5
Cc1nn(C)c(C)c1S(=O)(=O)N(CC(=O)NCCCOC(C)C)c1ccc(C(C)C)cc1	-13	-9	-1	0	-12	i	12	-9
COc1ccccc1-c1ccc(=O)n(CC(=O)NC(C)(C)C)n1	nt	-6	-1	2	-4	i	nt	-5
COc1ccc(C(CNC(=O)c2ccc(NS(=O)(=O)c3ccc(F)cc3)cc2)N2CCOCC2)cc1 (stereo unspecified)	-7	1	1	0	-1	i	-13	-7
CC1(C)CC2CC(C)(CN2C(=O)C23CCC(C)(C(=O)C2)C3(C)C)C1 (stereo unspecified)	nt	-27	-1	3	-18	i	30	-15
Cc1ccc(C)c(N2CCN(CCCNC(=O)Cn3cccc3C(=O)c3ccccc3C)CC2)c1	nt	16	-7	-15	0	i	28	7
N/C(=N\OC(=O)c1cc([N+](=O)[O-])ccc1Cl)c1cccnc1	-12	5	-3	-5	0	i	-8	-4
COc1ccc2oc(C(=O)NCC(Cc3ccccc3)N(C)C)c(C)c2c1 (stereo unspecified)	-6	16	-5	-2	7	i	2	-11
CC(C)CCNC(=O)c1cnn2c(C(F)(F)F)cc(-c3ccco3)nc12	nt	6	1	1	2	i	-6	2
OC(c1ccc(-c2ccccc2)cc1)c1ncc(-c2cccc(F)c2)[nH]1 (stereo unspecified)	3	nt	9	4	nt	nt	5	nt
CC(/C=C/c1ccco1)=N\NC(=O)C(O)c1ccccc1 (stereo unspecified)	-13	-16	-7	5	-5	i	20	68	eIF4H FP inh retest=-19;PABP polyA inh retest=40
CC1CCC(NC(=O)C2CC(O)CN2S(=O)(=O)c2ccc([N+](=O)[O-])cc2)CC1 (stereo unspecified)	4	-9	-5	5	nt	nt	nt	nt
CC(C)C(C)(C#N)NC(=O)CSc1nc(C2CCCCC2)n(-c2ccccc2)n1 (stereo unspecified)	nt	-3	-7	-4	6	i	43	-4
CC1CN(C(=O)c2cc(-c3ccc(Cl)s3)nc3ccccc23)CC(C)O1 (stereo unspecified)	nt	-5	-4	-6	nt	i	-12	nt
CCN1CCN(C(=S)c2ccc(-c3ccccc3)cc2)CC1	-15	4	2	0	4	i	42	6
Nc1ncnc2c1ncn2[C@@H]1O[C@H](CNCc2ccccc2OC2OC(CO)C(O)C(O)C2O)[C@@H](O)[C@H]1O (stereo partly specified)	-18	nt	6	7	nt	nt	-2	nt
O=C(c1ccc2c(c1)OCCCO2)c1cccs1	-17	2	-4	2	3	i	-63	-4
CC(=O)c1c(C)[nH]c(C(=O)N2CCCCCC2)c1C	-24	-8	0	1	-2	i	8	-1
COc1ccccc1-n1nnnc1SCC(=O)N(CC(C)C)C1CCS(=O)(=O)C1 (stereo unspecified)	-6	nt	-1	3	-2	i	-71	-17
CN(c1ccc(F)cc1)S(=O)(=O)c1ccc(Cl)c(C(=O)NCC2CCCO2)c1 (stereo unspecified)	-5	nt	-1	1	nt	nt	0	nt
O=C(COc1ccccc1[N+](=O)[O-])N/N=C/c1ccc(O)cc1	-11	-12	6	5	7	i	-13	-4
NC(=O)CSc1nnc(-c2cccs2)n1Cc1ccco1	-11	-5	0	4	-1	i	4	4
COC(=O)C1=C(C)N(CCc2ccc(OC)cc2)C(=O)C1	-46	3	-1	1	-4	i	nt	0
Cc1ccc(/S(C)=N/S(=O)(=O)c2ccc(C)cc2)cc1 (stereo unspecified)	-12	-3	-2	1	-4	nt	nt	-4
O=C(NCc1ccco1)Nc1ccc2snnc2c1	-14	-10	0	0	3	i	nt	1
C=CCNC(=S)NCc1ccccc1OC	nt	-4	-2	0	1	nt	4	-5
CN(Cc1cccs1)C(=O)c1cccc(S(=O)(=O)N2CCCCCC2)c1	-9	-5	0	-5	nt	nt	10	nt
O=C1CNc2ccc(C(=O)N3CCN(c4ccccn4)CC3)cc2N1	-21	-9	0	3	nt	i	-2	nt
CCN(CC)S(=O)(=O)c1cc(NC(=O)CNc2cccc(S(=O)(=O)N3CCOCC3)c2)ccc1C	-4	-2	-6	-31	nt	i	nt	nt
CCn1c(=O)c2cc(C(=O)Nc3ccccc3OC)sc2c2ccccc21	-1	24	3	0	-11	i	-13	-9
CCC(=O)Nc1cccc(C2=NOC3(C2)C[C@@H](C(N)=O)N(C(=O)c2cc([N+](=O)[O-])cc([N+](=O)[O-])c2)C3)c1 (stereo partly specified)	10	-27	1	-3	0	i	-22	-3
Cc1c(C(=O)c2ccc(Cl)cc2Cl)cnc2cc3c(cc12)OCO3	-12	16	-1	-8	0	i	-3	-8
O=C(CCNC(=O)c1ccc(Cl)cc1)NCC(c1ccco1)N1CCCC1 (stereo unspecified)	-9	nt	-1	0	nt	nt	-17	nt
O=C(O)C1Cc2ccccc2CN1C(=O)c1ccco1 (stereo unspecified)	-16	11	-6	0	8	i	-51	21
COc1cc([C@H]2Oc3c(OC)cc(CCCO[C@@H]4O[C@H](CO)[C@@H](O)[C@H](O)[C@H]4O)cc3[C@@H]2CO)ccc1O	-4	1	10	6	nt	nt	nt	nt
O=C(OCc1cccc(Cl)c1)c1cc(S(=O)(=O)N2CCCCC2)ccc1N1CCOCC1	-9	19	0	-10	-4	i	nt	-6
CCOc1ccc(N2C(=O)CN(O)C=C3N=c4ccccc4=C32)cc1	nt	-2	nt	nt	-4	i	nt	-1
Cc1ccccc1C(=O)N1CCN(c2ncccn2)CC1	-2	-11	-2	-3	-7	i	-21	-11
Cc1ccc2c(c1)C(c1ccccc1)N(C(=O)c1ccc(Br)o1)CC(=O)N2 (stereo unspecified)	2	-3	-14	-12	2	i	18	-3
Cc1ccc(C2(C)NC(=O)N(CC(=O)Nc3ccccc3C(=O)N3CCCCC3)C2=O)cc1 (stereo unspecified)	-1	-16	4	4	nt	i	-5	nt
CCC(C)N1CCNCC1 (stereo unspecified)	nt	-7	-2	-3	2	i	-8	0
COc1cc(NC(=O)C/C(C)=N/NC(=O)C2CCCCC2)c(OC)cc1Cl	-8	-14	-1	3	-3	i	-12	-3
Cc1ccc(/C=N/NC(=O)c2ccc3nc[nH]c3c2)o1	-29	-6	4	5	16	i	-4	-1
Cc1ccn(CCNC(=O)C2CCC(=O)N(CCc3ccc(Cl)cc3)C2)n1 (stereo unspecified)	-13	-11	-1	3	-13	i	2	-6
Cc1ccc(S(=O)(=O)NCC(c2ccc3c(c2)OCO3)N2CCN(c3ccccc3)CC2)cc1 (stereo unspecified)	-9	-3	-6	-5	nt	i	-34	nt
CC(C)Cc1nnc(NC(=O)C2CCN(C(=O)c3ccc(F)cc3)CC2)s1	-14	-2	0	-2	nt	i	-1	nt
CCOc1cc(S(=O)(=O)n2ccnc2)ccc1Cl	nt	-9	-4	1	-8	i	-4	-7

Further compounds follow:
SMILES	UUG fidelity	CSC inhib	MT1-MMP act inh	MT1-MMP act inh RFP	PABP polyA inh	Rce1 inhib	Env fusion inh	eIF4H FP inh	others
Cc1c(C(=O)Cc2ccccc2)n(C)c2ccccc12	nt	5	-2	-4	5	i	14	10
CC(=O)c1ccc(N(C)C)cc1	-19	nt	4	10	-2	i	nt	9
COc1ccc2c(c1)OC[C@H]1[C@H]2N2C(=O)c3ccc(F)cc3NC(=O)[C@@]2(C)[C@H]1c1ccccc1	-16	nt	-25	-18	nt	nt	-11	nt
S=C(Nc1ccccc1)N1CCc2ccccc21	-24	-12	4	1	2	i	-7	-5
COc1ccc2[nH]c(=O)c(C(=O)O)cc2c1	nt	1	-1	0	14	i	5	1
COc1ccc(-n2ccnc(SCC(=O)NCc3ccccc3Cl)c2=O)cc1	-3	0	1	0	3	i	0	-12
COCCCn1c(=O)c2sccc2n2c(CCCC(=O)NCc3ccc(F)cc3)nnc12	-24	-11	3	7	12	i	1	3
COc1c(Cl)cc(Br)c(OC)c1C(=O)NC(=O)Nc1nc(C)cc(C)n1	nt	14	-4	-6	3	nt	7	-2
COc1ccc(Cl)cc1NC(=O)C(=O)NC1CCCCCC1	8	nt	0	1	-12	i	nt	-5
CCOc1ccc(CCNC(=O)C2CCN(C(=O)N(C)C)CC2)cc1OCC	-2	1	-3	6	3	i	nt	-1
NC(=O)c1ccc(NC(=O)CSc2nnc(-c3cccnc3)n2Cc2ccco2)cc1	-3	-14	-1	4	16	i	6	19
CCc1nnc(NC(=O)c2ccc(OCc3c(C)noc3C)c(OC)c2)s1	-1	-2	3	3	-4	i	6	-7
O=C1c2ccccc2C(=O)N1CCc1nc(-c2cccnc2)no1	-3	0	4	9	-4	i	nt	1
Cc1cc(Br)ccc1OCCNCc1ccccc1	9	20	-1	0	8	i	2	6
Nc1ccc(Oc2c(Cl)cccc2Cl)nc1	nt	1	-3	3	?	i	8	?
C[C@@H](NC(=O)Cn1ccc(NC(=O)OCc2ccccc2)nc1=O)c1cccc2ccccc12	-11	8	12	5	nt	nt	18	nt
O=C(/C=C/c1ccc(Br)cc1)NCc1cccs1	nt	nt	-2	-4	-5	i	-10	-11
CN1CCN(C(=O)c2sc(=S)n(-c3ccccc3)c2N)CC1	-14	-12	6	6	9	i	-28	3
CCOC(=O)C1CCN(C(=S)Nc2ccccc2)CC1	nt	-13	-4	-6	5	i	-12	-3
O=C(O)c1ccccc1C=NNc1ccc([N+](=O)[O-])cn1	-19	nt	2	4	nt	nt	-47	nt
Cc1cc(O)ccc1NS(=O)(=O)c1ccc2c3c(cccc13)C(=O)N2	-7	-8	0	0	20	nt	2	7
CCCC#Cc1cnc2c(c1)C(=O)N([C@H](C)CO)C[C@@H](C)[C@@H](CN(C)C(=O)Nc1cccc(F)c1)O2	29&26&5	nt	-1	4	nt	nt	11	nt
CCCS(=O)(=O)NC(=O)C1(C)CCN(C(=O)c2cccc3ccccc23)C1 (stereo unspecified)	-17	nt	-3	5	nt	nt	-3	nt
C=CCNC(=O)CN1CCC(NC(=O)c2ccco2)CC1	nt	-6	-3	-1	0	i	1	-7
COc1ccc(-n2cc(CNCCCn3ccnc3)c(-c3ccccc3Cl)n2)cc1	nt	6	8	4	-11	i	10	-1
